Assay outcomes (PubChem)
WNV NS2B-NS3 inh: inhibitors of WNV NS2B-NS3 protease, primary screen, biochemical, fluorogenic substrate; fluorogenic substrate Ex360/Em465; stronger effect = lower value; Genome polyprotein (West Nile virus), P06935; z-score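 (tested at a level between 10 and 100 µM)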; 65,000 compounds, 0.18% hits;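 active means z-score at -3 or under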;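 further: score is relative to mean and spread of the compound wells of a plate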
Target sequence (P06935 1371-1501 limits assumed): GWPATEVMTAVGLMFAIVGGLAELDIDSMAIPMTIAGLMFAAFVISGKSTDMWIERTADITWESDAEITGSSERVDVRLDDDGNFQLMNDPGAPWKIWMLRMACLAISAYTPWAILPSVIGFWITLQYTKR
Target sequence (P06935 1502-1679 limits assumed): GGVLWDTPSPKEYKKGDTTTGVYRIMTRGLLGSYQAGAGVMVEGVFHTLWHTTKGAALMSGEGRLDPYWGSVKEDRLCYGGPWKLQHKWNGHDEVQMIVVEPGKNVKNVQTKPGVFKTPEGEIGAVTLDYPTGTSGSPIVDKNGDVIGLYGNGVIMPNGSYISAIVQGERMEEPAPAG
MT1-MMP promoter: inhibitors of MT1-MMP promoter transcription, cell-based, luciferase reporter, luminescence (AID 618); MT1-MMP promoter luciferase reporter cells, luminescence; calls from a first round at 10 µM; hits with a dose series show EC50 in µM; 87,000 compounds, 0.62% hits;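 active means over half of the reporter light lost at 10 µM or EC50 under 50 µM; inactive means the rest and hits that failed the dose series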;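 further: actives suppress MT1-MMP promoter-driven transcription so potencies describe inhibitors; HT1080 fibrosarcoma cells; overnight exposure; toxic or luciferase-blocking compounds were not removed from the actives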
Hsc70 ATP site: Hsc70 inhibitors, probe displacement, primary screen, biochemical, fluorescence polarization (AID 568); Hsc70 fluorescence polarization, probe displacement; higher % means a stronger effect; strong numbers were not always called active; displacement, % at 20 µM; hits with a dose series show IC50 in µM; 83,000 tested, under 10 active;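 active means displacement above 50% without optical interference and an IC50 on retest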;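 further: ATPase domain with a fluorescein-tagged ATP probe; 0% = vehicle and 100% = excess ADP; read after one hour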
The depositor's hits bear a star; i = inactive; . = not tested or not shown.

canonical_smiles,WNV NS2B-NS3 inh,MT1-MMP promoter,Hsc70 ATP site
O=C(c1ccco1)N1CCN(c2nc(-c3ccc(F)cc3)cs2)CC1,.,i,-2.2%
Cc1ccc(/C=N/NC(=O)Cn2nc(C)c(Br)c2C)o1,.,i,-4.1%
COc1ccccc1C(OC(=O)c1ccco1)C(=O)NC(C)(C)C (centres undefined),-0.76,i,0.8%
COc1ccc(N2CCN(CCCNC(=O)CN3CCN(Cc4ccccc4C)C3=O)CC2)cc1,0.36,i,-3.6%
CC1CCCCC1NC(=O)CSc1nnc(COc2ccccc2Cl)o1 (centres undefined),1.1,i,-6.7%
CCNC(=O)CN(CCc1ccccc1)S(=O)(=O)c1ccc(OC)cc1,.,i,3.1%
CCOC(=O)CCCSc1nc2sc3c(c2c(=O)[nH]1)CCC3,.,i,-0.4%
Cc1ccn(C(=O)c2ccc(NC(=O)C3CCCCC3)cc2)n1,-0.37,i,-2.1%
CCN(C(=O)Cc1cccs1)c1nnc(-c2cc(OC)c(OC)c(OC)c2)s1,1,i,5.3%
O=C(CSc1nc2ccccc2[nH]1)N1CCCCC1,-0.02,i,0.8%

Additional structures follow:
canonical_smiles,WNV NS2B-NS3 inh,MT1-MMP promoter,Hsc70 ATP site
Cc1ccc(N(Cc2ccco2)C(=O)c2cccc(S(=O)(=O)N(C)C)c2)cc1,0.78,i,5.9%
Cc1c(CCC(=O)O)c(=O)oc2cc3occ(-c4ccc(F)cc4)c3cc12,1.6,i,-4.2%
Nc1cc(OC(=O)c2cccs2)nn1S(=O)(=O)c1ccccc1,-8.1*,i,6.9%
O=C(CN1C(=O)NC2(CCSC2)C1=O)N1CCN(c2ccc(F)cc2)CC1 (centres undefined),-1.4,i,3.4%
O=S(=O)(Cc1ccccc1)Nc1ccc(S(=O)(=O)NCC2CCCO2)cc1 (centres undefined),3.5,i,2.4%
COc1ccc(NC(=O)CSc2nc3c(c(=O)n2-c2ccccc2OC)SCC3)cc1,0.05,i,2.5%
COc1cccc(C(=O)Nc2ccc(N3CCN(S(C)(=O)=O)CC3)cc2)c1,.,i,2.8%
Cc1ccc(CNc2nc3ccccc3s2)s1,0.82,1.7µM*,8.7%
Cn1cc(S(=O)(=O)CC(=O)Nc2ccc3c(c2)OCO3)c2ccccc21,.,i,3.5%
O=C(CN1CCCc2ccccc21)NCc1ccc2c(c1)OCO2,0.32,i,-7.3%

The list goes on:
canonical_smiles,WNV NS2B-NS3 inh,MT1-MMP promoter,Hsc70 ATP site
CCCn1c(SCC(=O)N2CCCC2)nc2c1c(=O)n(C)c(=O)n2C,-1.2,i,-4.3%
C=CCn1c(=O)c(C(=O)Nc2ccccc2O)c(O)c2ccccc21,-0.82,i,-5.0%
O=C(c1ccc(S(=O)(=O)N2CCOCC2)cc1)N1CCN(c2ccccc2)CC1,-0.87,i,-8.6%
CCn1c(C)c(/C=N/Nc2nc3ccccc3s2)c2ccccc21,.,i,-3.4%
Cc1ccc(S(=O)(=O)N2CCCCC2)cc1C(=O)Nc1ccc(N2CCOCC2)cc1,.,i,-1.1%
CCOC(=O)Cn1nc(-c2ccc(C)cc2)ccc1=O,-0.43,i,-0.6%
Cc1ccc(C2C(=O)N(C3CCCC3)CC(=O)N2C2CCCCC2)cc1 (centres undefined),.,i,3.0%
c1nc2sc3c(c2c2nnnn12)CCCC3,-0.14,i,6.5%
c1cncc(-c2noc(-c3ccco3)n2)c1,0.13,i,-1.9%
COc1ccc(OC)c(CN(CCCN2CCOCC2)C(=O)Nc2ccccc2)c1,.,i,2.4%

A draw from above in order of formula weight, lowest first:
canonical_smiles,WNV NS2B-NS3 inh,MT1-MMP promoter,Hsc70 ATP site
CCOC(=O)Cn1nc(-c2ccc(C)cc2)ccc1=O,-0.43,i,-0.6%
CCCn1c(SCC(=O)N2CCCC2)nc2c1c(=O)n(C)c(=O)n2C,-1.2,i,-4.3%
Cc1ccc(S(=O)(=O)N2CCCCC2)cc1C(=O)Nc1ccc(N2CCOCC2)cc1,.,i,-1.1%

Back to the main list with the three entries that preceded the break.
canonical_smiles,WNV NS2B-NS3 inh,MT1-MMP promoter,Hsc70 ATP site
c1nc2sc3c(c2c2nnnn12)CCCC3,-0.14,i,6.5%
c1cncc(-c2noc(-c3ccco3)n2)c1,0.13,i,-1.9%
COc1ccc(OC)c(CN(CCCN2CCOCC2)C(=O)Nc2ccccc2)c1,.,i,2.4%
CCN(CC)c1ccc(C(=O)Nc2cccc(F)c2)cc1,-1.2,i,-0.5%
COCCn1c(C2CCCCC2)nc2sc3ccccc3c(=O)c2c1=O,0.96,i,4.2%
Cc1cc(C(=O)Nc2ccc(C(=O)O)cc2)c(-c2ccccc2)o1,0.1,i,-4.3%
NC(=O)c1cc(N2C(=O)C3CC=CCC3C2=O)ccc1N1CCCCC1 (centres undefined),-0.1,i,3.3%
CCCn1c(N2CCN(S(=O)(=O)Cc3ccccc3)CC2)nc2ccccc21,1,i,-0.7%
Cc1ccc(NC(=O)CSC2=C(C#N)C(c3ccc4c(c3)OCO4)CC(=O)N2)cc1C (centres undefined),0.15,i,2.8%
O=C(Nc1ccc(Br)c(Cl)c1)C1CC1,-0.56,i,-2.3%
CCCCC1CC(CSC(=N)N)OC1=O (centres undefined),.,i,-4.2%
CC(C)CNS(=O)(=O)c1ccc(CCC(=O)NCc2ccco2)cc1,-0.45,i,2.0%
COc1cccc(N2C(=O)C(CC(=O)Nc3ccccc3)N(C3CCCCC3)C2=O)c1 (centres undefined),-0.07,i,3.7%

Next part:
canonical_smiles,WNV NS2B-NS3 inh,MT1-MMP promoter,Hsc70 ATP site
Cc1ccccc1Cn1nc(C)c(NC(=O)c2cc3nc(-c4ccco4)cc(C(F)(F)F)n3n2)c1C,-0.55,i,-0.7%
O=C(CCCn1c(=S)[nH]c2ccccc2c1=O)NC1CCCC1,-0.65,i,-0.9%
Cc1ccccc1Cn1nc(C)c(NC(=O)c2noc3c2CCCC3)c1C,0.42,i,-0.2%
CCn1c(SCC(=O)Nc2ccc3c(c2)OCCO3)nc2c(c1=O)SC(C)C2 (centres undefined),1.5,i,-4.8%
CC(CC(=O)NCc1cccnc1)c1ccccc1 (centres undefined),.,i,-3.4%
Nc1nc2ccc(S(=O)(=O)c3ccc4nc(N)sc4c3)cc2s1,1.4,i,-5.6%
COc1ccc(S(=O)(=O)N(CC(=O)Nc2cc(C)on2)Cc2ccccc2)cc1,-1.4,i,0.0%
CCSc1ncnc2sc3c(c12)CCC3,.,i,-1.4%
Cc1ccccc1CN1CCNC(=O)C1CC(=O)O (centres undefined),-0.8,i,0.4%
CN(Cc1ccccc1)C(=O)CCC(=O)N(C)Cc1ccccc1,1.7,i,11%

Later entries:
canonical_smiles,WNV NS2B-NS3 inh,MT1-MMP promoter,Hsc70 ATP site
CCN(C)c1ccc(/C=N\n2nnnc2N)cc1,-0.04,i,-2.6%
Cc1nc2ncnn2c(C)c1Cc1c(Cl)cccc1Cl,.,i,0.6%
CN1C(=O)/C(=C2/C=CC=CN2C)OC1=S,-1.8,i,3.4%
CCc1nnc(NC(=O)CSc2nccn2-c2ccccc2)s1,-0.45,i,-7.3%
COC(=O)c1sc(S(=O)(=O)NCc2cccs2)c(C(=O)OC)c1C,-0.11,i,3.9%
Cc1cc(C)nc(SCc2n[nH]c(=S)n2C)n1,-0.6,i,-5.6%
Cc1cccc(-c2noc(CN(C(=O)C34CC5CC(CC(C5)C3)C4)C(C)C)n2)c1,0.55,i,-1.0%
CCC(C(=O)Nc1nnc(-c2ccco2)s1)c1ccccc1 (centres undefined),0.23,i,-11%
CCCN1C=CC(=C2C(=O)c3ccccc3C2=O)C=C1,-0.43,<0.098µM*,-0.1%
COC(=O)c1ccc(CN(c2ccc(C)cc2)S(=O)(=O)c2ccc3c(c2)OCCO3)o1,-0.14,i,5.8%

Other records follow.
canonical_smiles,WNV NS2B-NS3 inh,MT1-MMP promoter,Hsc70 ATP site
O=C(NCCNS(=O)(=O)c1ccccc1)N1CCOCC1,.,i,-1.2%
O=C(CSc1nc2ccccc2o1)N1CCN(c2ccc(Cl)cc2)CC1,-0.66,i,3.6%
CN(O)/C=c1/ccc2c(n1)C(=O)C=CC=2,3.5,i,-6.8%
Cc1cccc(-n2ncc3c(NCCN4CCOCC4)ncnc32)c1,0.96,i,2.9%
Cc1cccc(-n2c(SCC(=O)N3CCCC3)nc3n[nH]c(C)c3c2=N)c1,.,i,7.9%
CCCCn1c(=NC(=O)c2ccco2)c(C(=O)OCC)cc2c(=O)n3ccccc3nc21,0.74,i,3.7%
COC(=O)/C(C#N)=C1/C=Cc2ccccc2N1C,.,i,-0.8%
CCN(C(=O)COc1ncnc2ccc(Br)cc12)C1CCS(=O)(=O)C1 (centres undefined),-0.43,i,-1.0%
CNc1ccc(Br)cc(C(=O)/C=C/c2cc(OC)ccc2OC)c1=O,.,i,3.6%
N#Cc1nc(COc2ccc(F)cc2)oc1NCCN1CCOCC1,-0.87,i,7.8%

(cont.)
canonical_smiles,WNV NS2B-NS3 inh,MT1-MMP promoter,Hsc70 ATP site
NS(=O)(=O)c1ccc(Nc2nc(-c3ccc4ccccc4c3)cs2)cc1,.,i,3.6%
Cc1cc(C)nc(N2CCCC(C(=O)NC(C)CCc3ccco3)C2)n1 (centres undefined),-0.49,i,0.6%
CC(C)Nc1nc(NC(C)C)nc(N(C#N)CCOc2ccc(Cl)cc2Cl)n1,.,i,-3.5%
CC(C)C(=O)c1cn(CC(=O)NCC2CCCO2)c2ccccc12 (centres undefined),-0.96,i,1.0%
c1cc(CSc2nnc(-c3ccc4c(c3)OCO4)o2)ccn1,-0.98,i,-6.8%
Cc1cccc(N2C(=S)N=C(Nc3c(C)cccc3C)C23CCOC(C)(C)C3)c1 (centres undefined),.,i,-0.7%
COc1ccc(C(=O)N[C@H]2COC(C)(C)O[C@H]2c2ccccc2)cc1,0.41,i,5.2%
Cc1ccc(CN(C#N)c2nc(C)cc(C)n2)cc1,.,i,0.8%
O=C(Nc1ccccc1N1CCCC1)c1ccc(Br)o1,-0.3,i,-3.7%
O=C(CSc1nc(Nc2ccccc2)nc(N2CCOCC2)n1)N1CCCC1,-0.4,i,7.3%

(more compounds)
canonical_smiles,WNV NS2B-NS3 inh,MT1-MMP promoter,Hsc70 ATP site
Cc1ccc(C23CC4CC(CC(C(=O)N5CCOCC5)(C4)C2)C3)cc1,.,i,1.6%
CCc1nc2oc3cc(OC)ccc3c(=O)c2c(=O)n1Cc1ccccc1,.,i,0.5%
O=c1c2c3nc4ccccc4nc3n(CC3CCCO3)c2ncn1CCc1ccccc1 (centres undefined),0.16,i,2.2%
CC(=O)OC1(C(F)(F)F)Oc2ccccc2NC1=O (centres undefined),-2.4,i,4.5%
N#C/C(=N\Nc1ccccc1F)C(=N)N1CCCCC1,.,i,-1.5%
CC(C)(C)NC(=O)C(c1ccco1)N(C(=O)Cn1nnc(-c2ccc(F)cc2)n1)c1ccccc1F (centres undefined),0.02,i,-7.0%
O=c1cc[nH]c2c(C(F)(F)F)cccc12,-0.99,i,3.8%
CC(=O)Nc1ccc(S(=O)(=O)N2CCN(Cc3ccncc3)CC2)cc1,-0.4,i,5.6%
O=C1CC(C(=O)Nc2ccc(C(=O)N3CCOCC3)cc2)C2(CCCCC2)O1 (centres undefined),0.7,i,2.0%
O=S(=O)(c1ccccc1C(F)(F)F)N1CCN(S(=O)(=O)c2ccccc2C(F)(F)F)CC1,.,i,0.3%

Next part:
canonical_smiles,WNV NS2B-NS3 inh,MT1-MMP promoter,Hsc70 ATP site
Cc1ccc(S(=O)(=O)N2CCCC(C(=O)NCc3ccccn3)C2)cc1 (centres undefined),-2.2,i,-1.8%
Cc1nc2nc[nH]n2c(=O)c1NC(=O)CCc1ccccc1,0.59,i,1.6%
C=CCn1c(Cc2nc3ccccc3[nH]2)n[nH]c1=S,-0.24,i,-0.9%
CC(=O)[C@H]1[C@H](C#N)C[C@H]2[C@@H]3CC=C4C[C@@H](O)CC[C@]4(C)[C@H]3CC[C@@]21C,0.28,i,-1.9%
COc1cccc(-c2nc(CS(=O)(=O)CC(=O)Nc3c(C)cccc3C)c(C)o2)c1,-1.4,i,0.7%
N#Cc1nc(-c2ccccc2Cl)oc1NCC1CCCO1 (centres undefined),0.68,i,-2.0%
NS(=O)(=O)c1ccc(CCNC(=O)c2cncc(Br)c2)cc1,-0.6,i,2.8%
O=S(=O)(/N=C(\c1ccccc1)N1CCOCC1)c1cccs1,0.72,i,-2.7%
O=C1NC2(CCOc3ccccc32)C(=O)N1CC(=O)N(Cc1ccccc1)C1CCS(=O)(=O)C1 (centres undefined),0.36,i,-3.4%
CCOC(=O)CSc1nc(C)cc(=O)[nH]1,-0.31,i,-1.5%

Next compounds follow.
canonical_smiles,WNV NS2B-NS3 inh,MT1-MMP promoter,Hsc70 ATP site
CCOC(=O)CN(C(=O)CSc1nnc2c(n1)[nH]c1ccccc12)c1ccccc1,-1.2,i,1.1%
Cc1ccc(N2CCN(C(=O)c3ccccc3)CC2)c(C)c1,0.55,i,-8.5%
Cc1ccc(-c2noc(CCCC(=O)N3CCOCC3)n2)cc1,-1.1,i,-1.0%
CC(Oc1cc(-c2ccccc2)cc2ccccc12)C(=O)N1CCOCC1 (centres undefined),.,i,-1.3%
CCOC(=O)C1CCN(C(=O)COc2ccc(Br)cc2)CC1,1.5,i,-2.0%
COc1cc(C(=O)N/N=C\c2ccccc2)c([N+](=O)[O-])c(OC)c1OC,.,i,4.0%
